# RGS16-Gao: RGS16-Galphao interaction regulator (human); O15492+P09471; bead-based flow cytometry RGS16-Galphao binding, fluorescence; actives lie on both sides; actives 0.38% (n = 220,000); binding response (% of control), % at 10 µM;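 active means below 25% or above 175%, edge rows of some plates excepted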;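 further: Galphao activated by GDP with aluminum fluoride before binding; 100% = wells without compound and 0% = beads without RGS; some results beyond the cut were filed as inactive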
# Target sequence (O15492 whole entry, looked up): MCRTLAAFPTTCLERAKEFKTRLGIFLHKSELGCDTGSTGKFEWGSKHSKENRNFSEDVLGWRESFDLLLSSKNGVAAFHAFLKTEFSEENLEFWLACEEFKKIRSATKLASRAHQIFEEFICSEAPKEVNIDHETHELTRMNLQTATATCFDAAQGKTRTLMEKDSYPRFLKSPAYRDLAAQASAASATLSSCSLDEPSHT
# Target sequence (P09471 whole entry, looked up): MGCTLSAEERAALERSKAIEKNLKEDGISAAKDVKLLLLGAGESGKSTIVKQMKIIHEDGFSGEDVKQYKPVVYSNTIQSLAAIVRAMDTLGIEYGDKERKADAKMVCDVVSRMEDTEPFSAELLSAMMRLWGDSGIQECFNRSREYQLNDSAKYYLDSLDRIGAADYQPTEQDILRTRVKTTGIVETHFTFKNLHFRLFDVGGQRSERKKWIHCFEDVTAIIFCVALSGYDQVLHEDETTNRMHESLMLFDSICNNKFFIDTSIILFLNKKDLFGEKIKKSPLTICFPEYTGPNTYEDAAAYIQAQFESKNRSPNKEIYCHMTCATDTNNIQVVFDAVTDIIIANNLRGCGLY
# GALR2 ag: activates the human galanin receptor 2 | O43603 | GALR2-expressing cells, agonist activation read-out | activation, %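 (tested at 5 µM)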 | actives 0.48% (n = 140,000);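 active means above mean plus 3 SD of all compounds, about 5% in these data, not always enough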;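 further: 0% = vehicle buffer wells and 100% = reference agonist at full effect; tested in CHO reporter cells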
# Target sequence (O43603 whole entry, looked up): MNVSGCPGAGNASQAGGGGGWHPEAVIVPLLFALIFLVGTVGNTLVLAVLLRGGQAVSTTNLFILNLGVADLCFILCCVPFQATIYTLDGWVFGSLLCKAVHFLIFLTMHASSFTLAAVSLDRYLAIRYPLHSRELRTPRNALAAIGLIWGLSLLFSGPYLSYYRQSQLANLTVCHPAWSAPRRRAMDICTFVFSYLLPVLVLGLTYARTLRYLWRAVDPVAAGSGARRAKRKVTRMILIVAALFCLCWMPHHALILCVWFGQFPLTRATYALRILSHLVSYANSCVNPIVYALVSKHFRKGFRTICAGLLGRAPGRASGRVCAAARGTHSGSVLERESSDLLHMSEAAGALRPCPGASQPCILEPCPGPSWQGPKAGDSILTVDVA
# Insulin prom inh: TRM-6 insulin promoter activity inhibition | TRM-6 cells (human fetal islet line), insulin promoter-eGFP reporter, imaging; reporter expression induced with tamoxifen | inhibition, % at 2 µM | actives 0.9% (n = 130,000);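 active means inhibition above the mean plus 3 SD, with well images judged a real hit on visual review, cut at about 60% in these data, passing the limit was not always enough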
# HSV augment: HSV replication enhancement; actives 0.005% (n = 220,000); maximum fold increase; HSV replication augmentation in cells, fold increase; AID 1956;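 active means peak rise of 1.5-fold or more in the series; tested in PC3 cells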;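 further: first round at 10 µM; read as green reporter fluorescence; hits show the peak of a series up to 25 µM; 1 = signal of infected wells without compound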
# PKD1 inh: inhibitors of human PKD1 kinase; PKD1 kinase fluorescence polarization assay; inhibition, %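 (about 10 µM by stock and volumes)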; actives 0.056% (n = 200,000); AID 797;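 active means inhibition of 50% or more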;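 further: controls were vehicle for no effect and a reference inhibitor for full effect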
# Insulin prom inh cell count: also measured in Insulin prom inh; calls as there; normalized cell count, %; measured here: cell count, toxicity; reference of the scale not given here;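 cells exposed to compound for 48 h; stained nuclei by imaging scaled within each plate; lower means fewer cells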
# HSV augment primary fold: second read-out of HSV augment, no call of its own (marks repeat the call); fold increase; compound at 10 µM; measured here: primary screen fold increase 10 uM; tested in PC3 cells;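 GFP signal in the first replicate; 1 = infected wells without compound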
# An asterisk follows results filed as active; i = inactive; · = not tested or not shown; & = joins results of further samples.
SMILES,RGS16-Gao,GALR2 ag,Insulin prom inh,Insulin prom inh cell count,HSV augment,HSV augment primary fold,PKD1 inh
CCn1cc(C(=O)NC2CCCCC2)c(=O)c2ccc(C)nc21,109,-1.6,-23,102,i,0.98,-2
O=[N+]([O-])c1ccc(Cl)cc1Sc1cccc2cccnc12,109,-0.3,30,89,i,0.81,-5
Oc1ccc(/C=N/Nc2nc(-c3ccc(Cl)cc3)cc(C(F)(F)F)n2)cc1,101,0.1,·,·,i,0.72,0
CC(=O)n1cc([C@@H]2C=C(C(=O)NCc3ccccc3)O[C@H](OCCCCO)C2)c2ccccc21,99,·,·,·,i,0.95,12
CCC(C)Sc1nc(O)c(Cc2ccccc2)c(=O)[nH]1 (configuration not stated),126,-0.8,·,·,i,1,-3
O=C(CC(c1ccccc1)c1cc(Br)ccc1O)NCCN1CCOCC1 (configuration not stated),140,-1.8,-29,114,i,0.98,-28
CCN(CC)c1ccc(C2C3CCCCC3(O)CCN2CC(=O)Nc2ccccc2)cc1 (configuration not stated),103,-2.6,-12,132,i,0.73,-11
CCOC(=O)C1(Cc2cccc(OC)c2)CCN(Cc2ccccc2)CC1,96,·,·,·,i,0.94,-7
N#Cc1cc2c(nc1SCC(=O)N1CCCCC1)CCCC2,56,0.8,-75,73,i,0.93,-7
COc1ccccc1N1CCN(C(=O)CCC(=O)O)CC1,102,·,22,171,i,0.94,1
COC(=O)CSc1nnc(-c2ccc(OC)cc2OC)o1,72,-0.9,59,90,i,0.89,-9
CC1C/C(=N/O)C(C)CN1 (configuration not stated),87,-1.5,50,22,i,0.94,-1
CC1Cc2nc(SCC(=O)Nc3ccc4c(c3)OCCO4)n(C)c(=O)c2S1 (configuration not stated),106,-0.6,-13,107,i,0.98,3
CCOC(=O)c1c(C)c(C)n(Cc2ccc(OC)c(OC)c2)c1C,131,-0.4,44,99,i,0.92,-6
COc1ccc(-c2[nH]c(-c3ccc4c(c3)OCO4)nc2-c2ccccc2)cc1,107,-2.0,·,·,i,0.75,0

# Continued, starting with the last two of the part before.
SMILES,RGS16-Gao,GALR2 ag,Insulin prom inh,Insulin prom inh cell count,HSV augment,HSV augment primary fold,PKD1 inh
CCOC(=O)c1c(C)c(C)n(Cc2ccc(OC)c(OC)c2)c1C,131,-0.4,44,99,i,0.92,-6
COc1ccc(-c2[nH]c(-c3ccc4c(c3)OCO4)nc2-c2ccccc2)cc1,107,-2.0,·,·,i,0.75,0
COCC(=O)N1CCN(c2cccc(Cl)c2)CC1,99,·,-6,53,i,1,0
O=C(NNc1ccccc1Br)C(=O)n1ccc2ccccc21,111,-1.9,50,90,i,1.1,5
Cc1ccn2c(-c3csc(NCc4ccccc4)n3)c(C)nc2c1,105,-0.5,-5,138,i,0.85,3
CCOC(=O)c1cn(CC#N)c2cc(F)c(F)cc2c1=O,101,·,22,66,i,1.1,-3
O=C(NC(c1ccccc1)c1ccccc1)C1CCCN(S(=O)(=O)c2cnc[nH]2)C1 (configuration not stated),103,-0.7,·,·,i,0.86,3
O=C(NC1CCCCC1)C1CC(O)CN1C(=O)OCc1ccccc1 (configuration not stated),104,-2.2,0,113,i,0.88,2
Cc1nc(CN2CCN(C(=O)c3ccc(C(C)(C)C)cc3)CC2)cs1,87,-1.9,·,·,i,1,-2
Cc1nc2nc[nH]n2c(=O)c1NC(=O)CC12CC3CC(CC(C3)C1)C2,96&77,-1.3&-1.9,17,140,i,1.1&1,-5&5
Cc1ccc2cc(C)c3nnc(SCc4ccc(C(=O)O)cc4)n3c2c1C,109,·,·,·,i,0.88,·
Cc1ccc(S(=O)(=O)Nc2cc(-c3ccc(Cl)cc3)nn2C)cc1,102,·,·,·,i,1,·
CC1CN(c2cc(=O)n(-c3ccccc3)c(=O)[nH]2)CC(C)O1 (configuration not stated),100,-1.6,30,49,i,0.85,-1
Cc1ccc(Nc2nnc(-c3ccccc3N)o2)cc1C,102,·,·,·,i,0.93,·
CN(C)c1cc[n+](Cc2ccccc2)cc1,103,-0.8,·,·,i,1.2,-8
Cc1nc2nc3c(c(=O)n2[nH]1)CCC3,89,-1.2,19,120,i,0.86,-1
CC(C)/C=C1\CCc2c([nH]c3ccccc23)C1=O,100,·,·,·,i,1,-3
COc1ccccc1NC(=S)NC(=O)/C=C/c1ccco1,113,-1.6,50,88,i,1,-4
COc1ccc(C2C(C(=O)Nc3ccccc3)=C(C)N=C3SCC(=O)N32)cc1 (configuration not stated),116,-2.4,19,125,i,1.1,2
COc1ccc(Nc2nc(C(=O)NCCCN3CCOCC3)cs2)cc1,97,-0.9,0,107,i,0.86,25
Cc1ccc(NC(=O)c2cc3cccc([N+](=O)[O-])c3[nH]2)cc1,96,·,·,·,i,0.98,·
CCc1nnc(NC(=O)C2CCN(C(=O)NC3CCCCC3)CC2)s1,88,-1.2,·,·,·,·,-6
CCN(CC)C(=O)COc1ccc(/C(C)=N/NC(=O)c2ccccc2O)cc1,100,·,·,·,i,0.86,-2
Cc1cc(C)cc(N2CC(C)(C)C2=O)c1,102,·,-12,96,i,0.96,-5
CCN(CC)S(=O)(=O)c1ccc2c(c1)N(CC(=O)NCc1ccco1)C(=O)CO2,103,·,·,·,i,1.1,·
COc1cc(/C=C/C(=O)c2c(O)ccc3c(C)cc(=O)oc23)ccc1O,99,-0.2,27,94,i,0.81,-6
CSc1sc(C(=O)NN)c2c1C1(CCC2)SCCS1,106,·,·,·,i,0.91,·
O=C(c1ccco1)N1CCN(C(c2ccc(F)cc2)c2nnnn2CC2CCCO2)CC1 (configuration not stated),101,-0.5,67,87,i,0.99,5
O=C(CCC(=O)N1CCN(S(=O)(=O)c2ccccc2)CC1)c1cccs1,94,-0.7,42,105,i,0.78,-17
Cc1ccccc1C1NC(=O)Cc2ccccc21 (configuration not stated),102,-1.1,-23,134,i,0.95,-3
COc1ccc(C[C@H]2CN3C(=NC[C@@H]3Cc3ccc(O)cc3)N2C[C@H](C)NC(=O)CCC2CCCCC2)cc1,104,·,·,·,i,0.89,·
CCOc1ncccc1C(=O)N1CCN(c2ccc(C(F)(F)F)cn2)CC1,99,·,·,·,i,1,-13
Cc1cccc(OC(C)C(=O)N(Cc2cccs2)C2CCS(=O)(=O)C2)c1C (configuration not stated),-16*,-2.3,-44,106,i,0.81,-10
CCCCc1nnc(NC(=O)CCSc2ccccc2)s1,101,-1.7,43,124,i,0.88,4
CSc1nc2ccc(NC(=O)C3=NN(c4ccccc4)C(=O)CC3)cc2s1,108,·,-36,119,i,0.97,-8
O=C1CS/C(=N\N=C\c2ccccc2Cl)N1CC1CC1,100,·,·,·,i,0.92,·
COc1ccccc1N1CCN(C(=O)CCCn2c(=O)[nH]c3ccsc3c2=O)CC1,99,-1.2,·,·,i,0.85,-6
Cc1c(S(=O)(=O)c2ccccn2)c(N)n(Cc2ccccc2)c1C,101,·,·,·,i,1.4,·
CCOC(=O)N1CCC(N(CCOC)C(=O)Nc2ccc(C)c(C)c2)CC1,97,-3.3,-40,49,i,0.92,1
COc1ccc(S(=O)(=O)N(CC(=O)N2CCOCC2)c2cc(Cl)ccc2OC)cc1OC,91,-1.1,·,·,i,1.1,8
COc1ccc(CCNC(=O)c2ccc(CNS(=O)(=O)c3ccc(C(C)(C)C)cc3)cc2)cc1OC,103,-0.1,·,·,i,0.87,-10
O=C(C/C=N/OCc1c(Cl)cccc1Cl)c1cnc(-c2ccccc2)s1,104,-1.9,28,112,i,0.95,-2
CC(=O)c1ccc(OCc2cccc(C(F)(F)F)c2)cc1O,92,·,·,·,i,1.1,-3
C/C(Cc1ccccc1)=N\NC(=O)CNC(=O)c1ccc(C(C)(C)C)cc1,101,-1.2,0,113,i,1,15
Nc1nc(-c2ccc3c(c2)CCCC3)cs1,102,-0.4,-18,92,i,0.67,-5
O=C(NC1CCCCC1)c1cccnc1C(=O)O,89,-2.4,-29,88,i,0.9,-4
Cc1ccc(CN(C)CC(=O)Nc2cccc([N+](=O)[O-])c2)o1,103,·,·,·,i,1,-4
Cc1nn(Cc2ccccc2Cl)c(C)c1NC(=O)c1nc2ncccn2n1,115,-1.8,25,146,i,0.95,12
N#C/C(=C/c1cc(Br)cs1)C(=O)NCC1CCCO1 (configuration not stated),101,-2.1,9,127,i,0.57,2
O=C(NNc1c2ccccc2nc2ccccc12)C12CC3CC(CC(C3)C1)C2,93,·,·,·,i,0.82,·
O=C1C(NS(=O)(=O)c2cccs2)=C(N2CCN(c3cccc(C(F)(F)F)c3)CC2)C(=O)c2ccccc21,83,-2.3,-28,93,i,0.81,-1
CCCCNC(=O)OCCSCCS(=O)(=O)c1ccc(Cl)cc1,99,·,·,·,i,1.1,·
CCCCOc1ccc(C(=O)N/N=C/c2ccc(OCCN3CCCCC3)c(OC)c2)cc1,103,2.4,10,106,i,0.64,-6
COc1cccc(C(=O)Nc2ccc(-c3nc4ccccc4o3)c(O)c2)c1,100,-3.0,·,·,i,0.76,-3
O=C(c1cc2ccccc2oc1=O)N(Cc1ccco1)CC1CCCO1 (configuration not stated),94,-1.2,6,55,i,0.98,5
COC(=O)Nc1ccc(S(=O)(=O)N2CCC(C(=O)N3CCCC(C)C3)CC2)cc1 (configuration not stated),100,·,·,·,i,0.95,-5
CCNc1nc(Oc2ccc(Cl)cc2Cl)cc(C(F)(F)F)n1,104,-2.0,39,91,i,0.75,6
COC(=O)C(NC(=O)c1ccccc1Cl)(Nc1ncc(S(=O)(=O)c2ccc([N+](=O)[O-])cc2)s1)C(F)(F)F (configuration not stated),102,-2.6,-21,65,i,0.98,-5
CN(Cc1cccc(-n2cccn2)c1)C(=O)CCc1nnc(C2CCCCC2)o1,113,·,·,·,i,1,7
Cc1ccccc1C1=NC(c2ccc(F)cc2F)ON1 (configuration not stated),138,-2.1,·,·,i,0.98,6
COc1cc2nc(CCc3ccccc3)oc(=O)c2cc1OC,107,·,33,167,i,1,2
O=C(NCc1cccnc1)c1ccc(CS(=O)(=O)c2ccc(Br)cc2)o1,102,-3.0,·,·,i,1,8

# A section from the list above, as a working copy:
SMILES,RGS16-Gao,GALR2 ag,Insulin prom inh,Insulin prom inh cell count,HSV augment,HSV augment primary fold,PKD1 inh
Cc1nn(Cc2ccccc2Cl)c(C)c1NC(=O)c1nc2ncccn2n1,115,-1.8,25,146,i,0.95,12
N#C/C(=C/c1cc(Br)cs1)C(=O)NCC1CCCO1 (configuration not stated),101,-2.1,9,127,i,0.57,2
O=C(NNc1c2ccccc2nc2ccccc12)C12CC3CC(CC(C3)C1)C2,93,·,·,·,i,0.82,·

# Quoted from the listing:
# Entry for COc1ccccc1N1CCN(C(=O)CCC(=O)O)CC1 under PKD1 inh: 1
# Entry for CC(=O)n1cc([C@@H]2C=C(C(=O)NCc3ccccc3)O[C@H](OCCCCO)C2)c2ccccc21 under HSV augment primary fold: 0.95
# Entry for COCC(=O)N1CCN(c2cccc(Cl)c2)CC1 under PKD1 inh: 0
# Entry for C/C(Cc1ccccc1)=N\NC(=O)CNC(=O)c1ccc(C(C)(C)C)cc1 under PKD1 inh: 15

# (next part)
SMILES,RGS16-Gao,GALR2 ag,Insulin prom inh,Insulin prom inh cell count,HSV augment,HSV augment primary fold,PKD1 inh
C=CCNC(=O)COc1ccc(Br)cc1Cl,98,0.3,-64,151,i,0.94,15
COc1ccc(-n2cnc3ccccc32)cc1,102,-2.8,19,176,i,0.96,-7
CC1CCN(c2ccc(NC(=S)NC(=O)c3ccco3)cc2)CC1,92,-1.2,0,133,i,0.88,3
Cc1cc(NC(=O)c2ccc3c(c2)OCO3)ccc1NC(=O)c1ccco1,98,-0.7,26,87,i,0.93,-11
COC(=O)CSc1nc2sc3c(c2c(=O)[nH]1)CCC3,106,·,·,·,i,1.1,·
COc1ccc(OC)c(C(=O)COC(=O)C2CC3CCCC(C2)C3=O)c1 (configuration not stated),102,0.3,-39,53,i,0.87,6
CC(C)(C)c1ccc(C(=O)NNc2ncccc2-n2cccc2)cc1,93,·,·,·,i,1,·
COC(=O)c1ccccc1NC(=O)Cn1c(CCC(=O)O)ccc1-c1cccs1,105,-0.9,27,111,i,0.94,-2
CN(C)S(=O)(=O)c1cccc(NC(=S)N/N=C/c2cc(Br)ccc2O)c1,108,·,·,·,i,1.2,·
COc1ccc(CCNC(=O)c2ccc(Cl)cc2Cl)cc1,87,-1.7,-8,100,i,0.85,-5
Cn1c(=O)cc(OCCCC(=O)NC2CCCC2)c2ccccc21,197,-1.3,-90,62,i,0.84,4
O=C(CSCc1ccc(Cl)cc1)NCC1CCCO1 (configuration not stated),115,-2.3,-9,158,i,1.1,0
COc1cc(/C=N/NC(=O)c2cc(C)oc2C)ccc1O,101,·,6,145,i,0.94,8
CCOc1ccc(-n2c(C)c(C(C)=O)c3cc(OCC(N)=O)ccc32)cc1,110,·,·,·,i,0.91,-4
Cc1cc2ncc(C(=O)N=CN(C)C)cn2n1,103,·,0,71,i,0.95,-11
Nc1ccc(-c2nnc(-c3ccc(-c4ccccc4)cc3)o2)cc1,113,1.1,·,·,i,0.91,-15
Cc1ccc(CSc2ccc(-c3ccc4c(c3)OCO4)nn2)cc1,106,-0.5,·,·,i,0.95,2

# Screening data deposited in PubChem BioAssay by several laboratories.
